B2AR ag = beta2AR agonists driving receptor internalization, primary screen, cell-based, FAP fluorogen, flow cytometry; Beta-2 adrenergic receptor (Homo sapiens), P07550; 0.43% of 340,000 active; response, % (test concentration not listed); AID 504454, 2011; Am2.2-beta2AR cells; reference of the scale not given here;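 active = response above a set limit, near 3 SD of response in nonfluorescent compounds, cut at about 42% in these data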;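 also: stock transfer was 100 nL into about 11 µL; a reference agonist was the positive control; negative values mostly stem from fluorescent compounds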
FGF22 binding = binders of human FGF22 protein, primary screen, FGF22 synaptogenesis inhibitor project, biophysical, thermal shift, single point. Fibroblast growth factor 22 (Homo sapiens), Q9HCT0. recombinant FGF22 thermal shift, SYPRO orange fluorescence; percent of sucrose octasulfate shift, DMSO zero. calls only at 9.99 µM. 1.5% of 340,000 active. AID 651658, 2012;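 active = melting point raised past a set limit in the mean and every replicate; three in four hits are not shown here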
Target sequence (Q9HCT0 whole entry, looked up): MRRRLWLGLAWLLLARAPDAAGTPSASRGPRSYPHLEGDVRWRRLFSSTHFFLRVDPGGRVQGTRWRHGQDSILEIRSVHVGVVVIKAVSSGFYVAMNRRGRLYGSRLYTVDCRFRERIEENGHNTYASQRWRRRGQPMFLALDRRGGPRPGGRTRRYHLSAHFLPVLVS
E coli growth = E. coli growth inhibition, primary screen, OD600 | Escherichia coli growth, 23 h; active compounds read low | OD600 absorbance (no concentration beside the values) | 0.21% of 330,000 active;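 active = OD600 absorbance below the run mean of sample wells minus 3.6 SD, in any replicate, cut at about 0.56 in these data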;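 also: stock transfer was 300 nL into about 60 µL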
UCH37 inh = inhibitors of human UCH37 deubiquitinase, primary screen, biochemical, Ub-AMC cleavage, fluorescence. Ubiquitin carboxyl-terminal hydrolase isozyme L5 (Homo sapiens), Q9Y5K5. purified proteasome/UCH37. 0.33% of 330,000 active. inhibition, % (no concentration beside the values);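 active = mean of two replicates above 20%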;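 also: 0% = compound-free wells with enzyme and 100% = wells lacking proteasome; stock transfer was 100 nL into about 20 µL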
Target sequence (Q9Y5K5 whole entry, looked up): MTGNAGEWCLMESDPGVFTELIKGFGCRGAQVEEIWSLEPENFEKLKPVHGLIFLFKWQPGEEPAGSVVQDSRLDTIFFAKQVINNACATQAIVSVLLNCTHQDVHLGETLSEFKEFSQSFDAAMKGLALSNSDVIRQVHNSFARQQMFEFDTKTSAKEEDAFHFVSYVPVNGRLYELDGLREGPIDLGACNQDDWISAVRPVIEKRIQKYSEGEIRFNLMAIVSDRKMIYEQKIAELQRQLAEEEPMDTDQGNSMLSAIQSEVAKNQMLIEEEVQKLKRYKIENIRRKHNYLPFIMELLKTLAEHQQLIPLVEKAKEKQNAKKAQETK
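System: Proteasome-associated human UCH37 deubiquitinase; Input: 0.15 nM proteasome in added enzyme buffer; Also added: Ub-AMC substrate from 1 µM stock; Incubation: 30 min compound-proteasome preincubation then 25 min substrate reaction, room temperature; Detection: fluorescence, ex 355 nm, em 460 nm; Read-out: % inhibition of Ub-AMC cleavage fluorescence; Benchmarks: no-proteasome and no-compound wells.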
ALR H2O2 inh = inhibitors of human ALR sulfhydryl oxidase, primary screen, biochemical, H2O2 detection, HRP-luminol luminescence, single point. AID 485317, 2010. FAD-linked sulfhydryl oxidase ALR (Homo sapiens), P55789. purified ALR, DTT oxidation. 3.8% of 290,000 active. inhibition, % (no concentration beside the values);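 active = mean and each replicate at 75% or more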;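 also: stock transfer was 7.5 nL into about 7.5 µL; 0% = neutral wells and 100% = wells with inactivated enzyme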
HNF4A DNA FP = change in binding of human HNF4A to DNA, primary screen, biochemical, fluorescence polarization, FITC-DNA | 1 h | activity change, % at 10 µM | 0.3% of 360,000 active; in the data active = activity change above about 30%, passing the limit was not always enough;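 also: controls were the assay level and a saturating level of protein; the project sought stronger binding though the title names inhibitors; some compounds called inactive have numbers as strong as hits; positive values seem to mean higher polarization but the record does not say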
Target sequence (P41235 whole entry, looked up): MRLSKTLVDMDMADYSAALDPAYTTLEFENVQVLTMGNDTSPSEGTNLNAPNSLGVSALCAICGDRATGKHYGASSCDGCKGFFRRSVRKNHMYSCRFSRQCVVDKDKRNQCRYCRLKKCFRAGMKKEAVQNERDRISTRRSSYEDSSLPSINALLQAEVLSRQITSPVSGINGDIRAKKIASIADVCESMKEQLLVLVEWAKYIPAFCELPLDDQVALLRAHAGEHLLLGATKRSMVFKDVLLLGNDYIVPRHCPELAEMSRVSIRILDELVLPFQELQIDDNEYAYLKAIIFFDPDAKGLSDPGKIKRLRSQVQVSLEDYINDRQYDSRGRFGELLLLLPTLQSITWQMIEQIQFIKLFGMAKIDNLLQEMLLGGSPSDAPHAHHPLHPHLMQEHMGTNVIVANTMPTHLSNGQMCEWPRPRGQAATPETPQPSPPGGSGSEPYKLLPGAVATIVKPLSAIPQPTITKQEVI
rRNA inh HTS = reduced GFP signal of wild-type E. coli, primary screen, bacterial rRNA inhibitor project, GFP/RFP fluorescence, OD600, single point; 1.6% of 350,000 active; GFP signal change (wild-type ribosome), % (test concentration not listed); AID 720706, 2013; E. coli WT GFP vs humanized-ribosome RFP mutants, 24 h; active compounds read low; DMSO median 0, no signal -100;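 active = significant combined selectivity score with lowered wild-type GFP, culture density cut under 30%, mutant RFP and density less affected; inactive = any of these conditions unmet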; also: one replicate is shown; some compounds called inactive have numbers as strong as hits
rRNA inh HTS OD600 = also measured in rRNA inh HTS; calls as there; OD600 change, %; measured here: OD600 growth;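 optical density of the mix in the first replicate; 0 = DMSO median and -100 = no signal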
rRNA inh HTS RFP = second read-out of rRNA inh HTS, no call of its own (marks repeat the call); RFP signal change, %; measured here: RFP humanized mutant strains;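 first replicate; 0 = DMSO median and -100 = no signal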
Numbers without * were called inactive; i = inactive; / = not tested or not shown; & = joins results of further samples. Only part of the results is shown (hit frequency here may not be typical).

SMILES	B2AR ag	FGF22 binding	E coli growth	UCH37 inh	ALR H2O2 inh	HNF4A DNA FP	rRNA inh HTS	rRNA inh HTS OD600	rRNA inh HTS RFP
COC(=O)c1sccc1NC(=S)N1CCN(C)CC1	-2	i	0.68	-1.8	-2	-1.8	18	11	-4.6
COc1ccccc1NC(=O)Cn1c2ccccc2c2nc3n(c(=O)c21)CCS3	-21	i	0.71	-3.6	1	4.6	15	24	1.3
CC(=O)N(C)C1(c2nnnn2CCOC(=O)Nc2cccc3ccccc23)CCCC1	-1	/	0.75	-3.5	-7	-1.6	/	/	/
COc1ccc(CN2C(=O)C(CC(=O)NCc3cccc4ccccc34)CC(C(=O)N(C(C)C)C(C)C)=C2C)cc1 (stereo unspecified)	/	i	/	/	/	2.4	-8	-2	1.2
Cc1ccc2c(=O)n3c(nc2c1)C(Cc1ccc(O)cc1)NC(=O)c1cccnc1-3 (stereo unspecified)	/	i	/	/	/	2.0	10	4	-1.3
COc1ccsc1C(=O)Nc1ccc(F)cc1F	-8	i	0.71	3.2	-4	-2.8	2	-1	-0.4
Cc1cccc(NC(=O)CCc2c(C)nn(-c3ccc(N4CCCCC4)nn3)c2C)c1	-15	i	0.75	2.2	0	3.4	-16	-14	-2.9
COc1ccc(CCC(=O)OCC(=O)Nc2c(C)nn(-c3ccccc3)c2C)cc1	-5	i	0.66	3.4	-1	2.9	10	4	2.2
Cc1ccnc(SCC(=O)N2CCc3ccccc32)n1	-6	i	0.69	4.6	-6	4.8	2	6	-1.2
COc1ccc(CCNC(=O)CN2CCC(C)CC2)cc1OC	9	/	0.65	2.7	-3	1.0	/	/	/
Cc1cc(C(=O)Nc2ccc(S(=O)(=O)N3CCCC3)cc2)cs1	1	/	0.64	3.2	4	-1.7	/	/	/
Cc1ccc(C)c(CN2C(=O)C3(OCCCO3)c3ccccc32)c1	-3	/	0.72	3.9	-3	-5.9	/	/	/
O=C1NN(c2ccccc2)C(=O)/C1=C\c1ccc(-c2cc([N+](=O)[O-])ccc2O)o1	-5	/	0.72	16	/	-6.7	3	14	-2.2
CCN(CC)c1ccc(/C=N/NC(=O)c2ccc(Br)o2)cc1	12	i	/	/	12	0.3	-23*	-17*	-4.3*
Cc1ccccc1CN(C)C[C@@H]1OCc2cnnn2CCCC(=O)N([C@@H](C)CO)C[C@H]1C	/	i	/	/	/	-3.3	7&0	6&1	-3.4&1.9
O=C(COC(=O)c1cccc(Cl)c1)NCCN1C(=O)CSC1=O	-2	i	0.67	0.6	-5	2.1	6	17	2.6
CCc1nc(SCC(=O)Nc2cc(C)on2)c2c(C)c(C)sc2n1	-10	/	0.79	-3.0	-12	-0.4	/	/	/
COc1cccc(-c2ccc(SCC(=O)N3CCc4ccccc43)nn2)c1	/	/	0.69	2.7	-5	/	/	/	/
Cc1ccccc1CC1(CO)CCCN(C(=O)c2ccc3ncccc3c2)C1 (stereo unspecified)	-5	i	0.73	2.7	3	-0.3	-25	-29	-6.3
O=C(COc1ccc(S(=O)(=O)N2CCOCC2)cc1Cl)NCc1ccccn1	0	i	0.67	0.6	-3	2.5	3	-3	-1.5
O=C(O)c1ccc2c(=O)n3c(nc2c1)/C(=C/c1cccc(Cl)c1Cl)CCCC3	21	/	0.7	0.8	97*	0.2	/	/	/
Nc1ccn([C@@H]2O[C@H](C(=O)N[C@H](CO)Cc3ccccc3)[C@@H](O)[C@H]2O)c(=O)n1	/	i	/	/	/	-1.3	22	12	4.6
S=c1nc[nH]c2c1cnn2-c1ccccc1	4	i	0.69	3.1	25	-3.1	3	4	-2.9
CC(=O)OCCNC(=O)Cn1cnc2c1c(=O)n(C)c(=O)n2C	-6	/	0.69	2.3	-3	-1.1	/	/	/
COc1cnc(-c2ccccc2)nc1Oc1cccc(C)c1	8	/	0.79	2.6	-6	-2.2	/	/	/
O=C(O)CCc1nc2cc3ccccc3cc2[nH]1	-4	i	0.66	-5.4	-9	0.2	8	9	2.9
O=C(Nc1nnc(C2CCCCC2)s1)c1cccs1	-11	/	0.74	3.9	9	-0.5	1	1	0.3
CCCOC(=O)CSc1nnc(-c2cc(OC)c(OC)c(OC)c2)o1	3	/	0.69	2.8	2	1.7	-3	-14	-2.2
NS(=O)(=O)c1ccc(CNS(=O)(=O)c2ccc(Cl)nc2)cc1	3	i	0.68	3.8	-14	-1.4	17	7	2.7
COc1ccc(NS(=O)(=O)c2ccc(NS(=O)(=O)c3cccs3)cc2)cc1	-2	i	0.66	0.3	/	-2.1	-4	-5	-6.4
CCOc1cc(S(=O)(=O)N2CCN(CC)CC2)ccc1Cl	-20	/	0.76	0.0	-8	-2.9	/	/	/
c1ccc(CN2C3=NCCCN3c3ccccc32)cc1	-2	/	0.7	3.1	-14	/	/	/	/
CCOC(=O)N1CCN(C(=O)c2cc(COc3ccc(Cl)cc3OC)on2)CC1	-5	/	0.65	-2.4	-3	0.8	-4	-22	-2.1
COc1ccc(CCNC(=O)C2CCN(C(=O)c3cccc(Cl)c3)CC2)cc1OC	-4	i	0.64	2.7	-3	3.7	-3	-2	1.6
O=C(NCCc1c[nH]c2ccccc12)C(=O)NCC1OCCCN1S(=O)(=O)c1ccccc1 (stereo unspecified)	-4	i	0.68	2.3	-3	2.9	-40	-50	-15
CCCC(=O)Nc1ccc(C(=O)NCC2CCCO2)cc1 (stereo unspecified)	-6	/	0.71	2.5	6	-1.6	/	/	/
Cc1ccnc(NC(=O)c2cccc3ccccc23)c1	0	i	0.69	-0.5	0	0.4	-2	1	-0.8
CCC(=O)OC1(C(=O)CCl)[C@@H](C)C[C@H]2[C@@H]3CCC4=CC(=O)C=C[C@]4(C)[C@@]3(F)[C@@H](O)C[C@@]21C (stereo partly specified)	3	i	/	1.4	-18	1.2	/	/	/
Nc1ccc(C(=O)O)cc1S(=O)(=O)O	-5	i	0.69	3.2	/	-0.3	9	3	-6.6
O=C(NCc1ccco1)Nc1ccc2snnc2c1	1	/	0.69	-6.1	39	-1.0	/	/	/
CS(=O)(=O)N(CC(=O)Nc1ccccc1Br)Cc1ccccc1	4	i	0.63	1.1	-7	-1.4	-2	-2	-1.2
CC(C)(C)c1ccc(C(=O)Nc2ccc3c(c2)C(=O)NC3=O)cc1	4	i	0.72	-235	-4	2.5	-2	7	-2.2
Cc1ccc(-c2cc(-c3ccccc3)nc(Cl)n2)cc1	1	/	0.66	-0.4	-1	-9.7	/	/	/
O=C1C[C@@H]2c3c(cccc3CN1Cc1ccc(F)cc1)C[C@@H](O)[C@H]2O	-1	i	/	3.1	-2	-0.8	-6	-6	-6.6
CN(c1ccccc1)c1nc(N2CCCC2)nc(-n2ccnc2)n1	-2	/	0.66	3.5	-1	-0.4	/	/	/
COc1ccc(OC)c(/C=C/c2c([N+](=O)[O-])c(=O)n(C)c(=O)n2C)c1	0	i	0.7	8.1	1	2.1	6	8	-1.8
O=C(O)C(Cc1c[nH]c2ccccc12)N1C(=O)C2C3c4ccccc4C(c4ccccc43)[C@@H]2C1=O (stereo partly specified)	0	i	0.7	1.9	14	3.0	-12	-10	8.6
CCOC(=O)c1cnc(SCc2ccc(C(C)(C)C)cc2)nc1N	6	/	0.74	2.6	-5	-0.6	/	/	/
COc1ccc(Nc2ccc(Cl)cc2)c(C(=O)O)c1	3	/	0.68	5.9	99*	-0.1	/	/	/
Cc1cccc(CCNC(=O)CCS(=O)(=O)c2ccc(Br)cc2)c1	7	/	/	/	-6	5.5	/	/	/

Continued:
SMILES	B2AR ag	FGF22 binding	E coli growth	UCH37 inh	ALR H2O2 inh	HNF4A DNA FP	rRNA inh HTS	rRNA inh HTS OD600	rRNA inh HTS RFP
OC1(c2ccc(F)cc2)CCN(Cc2nnnn2Cc2cccs2)CC1	5	/	0.67	2.9	-7	1.9	/	/	/
Cc1cc(F)ccc1S(=O)(=O)NCC1CC2CCC1C2 (stereo unspecified)	1	i	0.65	1.0	/	3.3	-3	0	-1.4
Cc1cccc(C)c1OCc1nnc(SCC(=O)NCCc2ccccc2)o1	-10	/	0.7	1.7	-7	1.0	/	/	/
CCOc1cc(NC(=O)c2ccccn2)c(OCC)cc1NC(=O)c1cccc(C)c1	-7	i	0.72	-56	-20	0.1	5	4	0.0
O=C(NCc1n[nH]c(=S)n1-c1cccc(Cl)c1)c1ccc(S(=O)(=O)N2CCCC2)cc1	-5	/	0.71	3.5	94*	-7.9	/	/	/
O=C(C1CCCN1S(=O)(=O)c1cccc2nsnc12)N1CCCCCC1 (stereo unspecified)	-7	i	0.67	5.1	-2	-1.9	3	3	-2.4
CCCCC1CC2=C(C(=O)OC(C)(C)O2)C(c2ccc(F)cc2)O1 (stereo unspecified)	/	i	/	/	/	-1.0	2	-19	-10
CCN(CC(=O)NCc1ccc(Cl)cc1)C(=O)CN1C(=O)NC(C)(c2ccccc2)C1=O (stereo unspecified)	-5	i	0.73	1.4	-16	1.0	0	6	-0.2
O=C(CCc1ccccc1)Nc1cc2c3c(c1)CC(=O)N3CCC2	-2	i	0.67	4.0	0	0.4	-9	-23	3.0
COC(=O)c1ccc2c(c1)C(=O)/C(=C/c1ccc(O)cc1)O2	8	/	0.7	3.9	-34	20	/	/	/

Brought forward from above: four compounds, then new ones.
SMILES	B2AR ag	FGF22 binding	E coli growth	UCH37 inh	ALR H2O2 inh	HNF4A DNA FP	rRNA inh HTS	rRNA inh HTS OD600	rRNA inh HTS RFP
CCCCC1CC2=C(C(=O)OC(C)(C)O2)C(c2ccc(F)cc2)O1 (stereo unspecified)	/	i	/	/	/	-1.0	2	-19	-10
CCN(CC(=O)NCc1ccc(Cl)cc1)C(=O)CN1C(=O)NC(C)(c2ccccc2)C1=O (stereo unspecified)	-5	i	0.73	1.4	-16	1.0	0	6	-0.2
O=C(CCc1ccccc1)Nc1cc2c3c(c1)CC(=O)N3CCC2	-2	i	0.67	4.0	0	0.4	-9	-23	3.0
COC(=O)c1ccc2c(c1)C(=O)/C(=C/c1ccc(O)cc1)O2	8	/	0.7	3.9	-34	20	/	/	/
CS(=O)(=O)Nc1ccc(C2=NN(S(C)(=O)=O)C(c3ccccc3)C2)cc1 (stereo unspecified)	1	/	0.68	-108	-11	1.5	/	/	/
O=C(CCC(=O)Nc1ccccc1)NCCO	0	/	0.71	4.9	-11	-6.3	/	/	/
O=C(OCC(=O)c1ccco1)c1ccc2ncsc2c1	-2	/	0.67	2.3	7	-1.8	/	/	/
Cc1nc(Nc2ccc(Cl)cc2Cl)sc1C(=O)Nc1ccccc1	-5	i	0.67	6.0	-1	-0.9	/	/	/
Cc1onc(-c2c(F)cccc2Cl)c1C(=O)Nc1sc2c(c1C(N)=O)CCC2	-10	/	0.71	-53	-3	4.4	/	/	/
COc1ccc2[nH]c3c(=O)n(CCCCC(=O)NCCC(C)C)c(=S)[nH]c3c2c1	-2	i	0.61	-6.9	/	-4.8	-25*	14*	1.8*
c1ccc2c(c1)nc1n2CCN1CCNC1CCCCC1	0	/	0.69	5.4	/	-0.1	/	/	/
CCOc1ccc(Oc2ccc(NS(=O)(=O)c3cc(C(=O)O)ccc3Cl)cc2)cc1	1	i	0.67	4.8	8	3.6	/	/	/
CCCCN1CCC(=O)C(C(=O)OCC)=C1C(=O)OCC	0	i	0.67	4.9	/	1.4	21	18	3.8
CCC(=O)Nc1ccc2c(c1)ncn2-c1ccccc1	-18	/	0.66	4.5	-11	-0.9	/	/	/
